PABP FP inh – PABP-poly(A) binding inhibition; P11940; PABP-poly(A) RNA binding, fluorescence polarization; inhibition, % at 35 µM; hit rate 1% among 290,000;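 active = 50% or more with normal probe brightness, or confirmed in later tests; inconclusive = above 50% with abnormal brightness, or retests that disagree; inactive = below 50% or failed in later tests; about a fifth of its hits are not listed in these tables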;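 also: calls also rest on retests at 20 µM and on dose response follow-up; controls were probe without protein and protein plus probe with vehicle; some compounds called inactive have numbers as strong as hits; many hits fall short of the cut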
eIF4H FP inh – inhibitors of RNA binding by human eIF4H. Q15056. eIF4H fluorescence polarization binding assay. inhibition, % at 35 µM. hit rate 0.94% among 290,000;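 active = 50% or more with normal probe brightness, or confirmed in later tests; inconclusive = above 50% with abnormal brightness, or retests that disagree; inactive = below 50% or failed in later tests; about a fifth of its hits are not listed in these tables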;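 also: calls also rest on retests at 20 µM and on dose response follow-up; 0% = protein and probe with vehicle and 100% = probe without protein; strong numbers were not always called active; many hits fall short of the cut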
Env fusion inh – inhibitors of HIV Env-mediated cell fusion; HeLa-JRFL Env/CEM21 cell fusion, luciferase; inhibition, % at 12.3 µM; hit rate 1.1% among 360,000;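 active = mean replicate inhibition score of at least 50 and every replicate individually at or above 50; inconclusive = only one of the two criteria met; inactive = mean below 50 and not all replicates reaching 50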;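 also: 0% = plate neutral controls and 100% = maraviroc near 300 nM; one replicate is shown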
Rce1 inh – yeast Ras-converting enzyme inhibition; yeast membranes, quenched prenylated peptide cleavage fluorescence; AID 2563; Q03530; hit rate 0.27% among 290,000; calls only;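 active = fall in fluorescence gain of 50% or more versus controls, with final raw signal at or below 3038400; inconclusive = same 50% fall but final raw signal above 3038400; inactive = fall in fluorescence gain under 50%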;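 also: plate controls were neutral control wells for no effect and wells lacking membranes for full effect; tested at 10 µM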
Target sequence (Q03530 whole entry, looked up): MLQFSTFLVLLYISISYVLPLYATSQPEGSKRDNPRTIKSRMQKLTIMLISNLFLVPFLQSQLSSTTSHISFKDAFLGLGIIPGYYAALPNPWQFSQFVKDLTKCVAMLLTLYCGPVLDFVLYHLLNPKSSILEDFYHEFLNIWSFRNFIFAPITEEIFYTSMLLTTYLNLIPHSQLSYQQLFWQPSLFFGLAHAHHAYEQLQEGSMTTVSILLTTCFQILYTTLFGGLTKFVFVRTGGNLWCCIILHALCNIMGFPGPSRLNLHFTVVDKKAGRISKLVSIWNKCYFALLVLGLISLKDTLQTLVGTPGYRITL
MT1-MMP act inh – MT1-MMP (human) activation inhibition; GFP/RFP ratio change, % at 20 µM; hit rate 0.061% among 360,000; AID 651647; HT1080 RFP-PRO-GFP cells, GFP/RFP ratio fluorescence, overnight; percent of plate control window, DMSO zero; P50281;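 active = GFP/RFP ratio change of at least 30% with cell ATP level not reduced by more than half and red fluorescence within 50% of control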; also: strong numbers were not always called active
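Assay system: HT1080 RFP-PRO-GFP cells | Dosing: 20 µM single dose, 1% DMSO | Incubation: Cells overnight before dosing, compound overnight, 37 °C, 5% CO2 | Evaluation: GFP/RFP fluorescence ratio | Control set: DMSO-only wells and HT1080 RFP-L50D-GFP cell wells as references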
CSC inhib – cancer stem cell inhibition; cancer stem cell-like cells viability, luminescence; inhibition, % at 7.5 µM; hit rate 1.1% among 300,000;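 active = mean at 75% or more and at least half the replicates too; inconclusive = mean and replicates disagree; tested in HMLE shEcad cells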;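 also: 0% = median of negative and 100% = median of positive control wells; the first replicate is given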
Yeast UUG start – modulators of start codon recognition fidelity in yeast; S. cerevisiae UUG-firefly luciferase reporter, luminescence/redox ratio; activity score, % at 18.7 µM; hit rate 0.13% among 350,000; AID 602363;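 active = replicate mean at a twofold rise or more, about +100% in these data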;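 also: firefly luciferase made from a UUG start codon reports start codon fidelity; reporter light over untreated wells divided by growth signal over untreated wells; some hits fall short of that in this replicate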
MT1-MMP act inh RFP – also measured in MT1-MMP act inh; calls as there; RFP signal change, %; measured here: RFP expression control read;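 0 = vehicle wells; hits needed this value within 50% of zero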
* = called active by the depositor; i = inactive; ? = inconclusive; nt = not tested or not shown; & = joins results of further samples. The list is partial; the hit share may differ from the screen's.

The first 2 compounds as a preview:
#1 CNC(C)C(=O)NC(C(=O)NC(C(=O)Nc1cccc2ccccc12)C(C)C)C(C)C (stereo unspecified)
#2 O=C(CSC(=S)N1CCCCC1)N1N=CCC1c1ccccc1 (stereo unspecified)

compound no.	1	2
PABP FP inh	nt	2
MT1-MMP act inh	8	-2
Rce1 inh	nt	i
Yeast UUG start	-10	-13
eIF4H FP inh	nt	4
CSC inhib	nt	-15
MT1-MMP act inh RFP	6	1
Env fusion inh	-54	-89

Main list, previewed entries included:
#1 CNC(C)C(=O)NC(C(=O)NC(C(=O)Nc1cccc2ccccc12)C(C)C)C(C)C (stereo unspecified)
#2 O=C(CSC(=S)N1CCCCC1)N1N=CCC1c1ccccc1 (stereo unspecified)
#3 CCN(c1ccc(C(=O)CSc2nnc(C3CC3)n2C2CC2)cc1)S(C)(=O)=O
#4 Cc1nc(SCC(=O)Nc2nnc(C(C)C)s2)n[nH]1
#5 CCOC(=O)[C@@H]1[C@H]2COc3cc(OC)ccc3[C@H]2N2C(=O)N(c3ccc(F)cc3)C(=O)[C@]12C
#6 CCOC(=O)C1=C(C)NC(C)=C(C(=O)OCC)C1C(=O)O
#7 CCN(C(=O)CSc1nnc(C)n1Cc1ccccc1)C1CCS(=O)(=O)C1 (stereo unspecified)
#8 CCc1ccccc1OCC(=O)Nc1nnc(C2CC2)s1

compound no.	1	2	3	4	5	6	7	8
PABP FP inh	nt	2	nt	-7	-10	5	-2	nt
MT1-MMP act inh	8	-2	-2	0	-1	3	-4	0
Rce1 inh	nt	i	nt	i	i	i	i	nt
Yeast UUG start	-10	-13	-18	-9	-3	-13	nt	-7
eIF4H FP inh	nt	4	nt	-6	5	-3	12	nt
CSC inhib	nt	-15	nt	-1	-9	-4	-13	nt
MT1-MMP act inh RFP	6	1	1	5	0	5	-3	-2
Env fusion inh	-54	-89	-6	-2	nt	-3	-6	-33

#9 O=C(CSc1nnc(-c2ccc(F)cc2)c2ccccc12)NCC1CCCO1 (stereo unspecified)
#10 [C-]#[N+][C@H](O[C@@H]1O[C@H](CO)[C@@H](O)[C@H](O)[C@H]1O)c1ccccc1
#11 CCOc1ccc(S(=O)(=O)NCCCl)cc1
#12 CC1(Cc2ccc3c(c2)OCO3)C(=O)Nc2ccc(-c3cccc(C(F)(F)F)c3)cc21 (stereo unspecified)
#13 Cc1cc(-c2nn(-c3ccccc3F)cc2CN2CCC(C(N)=O)CC2)c(C)s1
#14 Cc1ccc(C2=Nc3cccnc3C(c3ccccc3)=NN2)cc1
#15 N#CC1=C(N)C(C#N)(C#N)[C@H](c2cccnc2)[C@H]2CN(C(=O)OCc3ccccc3)CC=C12
#16 C[C@@]12C(=O)Nc3ccccc3C(=O)N1[C@H]1c3cc(Br)ccc3OC[C@@H]1[C@@H]2c1ccccc1

compound no.	9	10	11	12	13	14	15	16
PABP FP inh	6	nt	10	nt	-17	-3	-2	nt
MT1-MMP act inh	-3	0	4	-1	0	1	-78	-14
Rce1 inh	i	i	i	nt	i	i	i	nt
Yeast UUG start	nt	-8	nt	7	nt	nt	-7	-11
eIF4H FP inh	1	nt	-4	nt	-3	-1	31	nt
CSC inhib	-13	-10	4	nt	-9	-17	-4	-17
MT1-MMP act inh RFP	-2	4	7	-4	-1	1	-2	-12
Env fusion inh	-1	nt	12	8	10	-101	-15	-103

#17 COc1ccccc1NC(=S)NC(=O)C(C)(C)C
#18 Cc1cc2nc(C3CCN(Cc4nnnn4Cc4cccs4)CC3)[nH]c2cc1C
#19 Cc1ccc(S(=O)(=O)N2CCN(C(=O)CNC(=O)c3ccc(Cl)cc3)CC2)cc1
#20 CN(C)CCNC(=O)c1c(NC(=O)c2ccccc2)sc2c1CCCC2
#21 O=S(=O)(c1ccc(F)cc1)N1CCc2ccccc21
#22 Cc1nc(Nc2cccc(C(C)O)c2)c2nnn(Cc3ccccc3F)c2n1 (stereo unspecified)
#23 CC1CN(C(=O)COC(=O)Cc2c(Cl)cccc2Cl)CC(C)O1 (stereo unspecified)
#24 CCS(=O)(=O)Nc1cccc(-c2cc(-c3ccccc3)c3cc(C)ccc3n2)c1

compound no.	17	18	19	20	21	22	23	24
PABP FP inh	8	-4	nt	1	5	12	nt	0
MT1-MMP act inh	4	2	2	4	-2	2	2	-2
Rce1 inh	i	i	nt	i	i	i	nt	i
Yeast UUG start	-21	-17	-7	-3	-10	nt	-8	nt
eIF4H FP inh	-2	-5	nt	-4	-3	1	nt	-2
CSC inhib	5	20	-14	6	4	0	-16	-3
MT1-MMP act inh RFP	1	-4	-1	0	3	-10	4	-7
Env fusion inh	nt	nt	nt	9	7	5	10	nt

#25 CC1(C)CC(=O)C(C=Nc2ccc3cn[nH]c3c2)=C(O)C1
#26 CCc1nnc(NC(=O)C2=NN(C3CCS(=O)(=O)C3)C(=O)CC2)s1 (stereo unspecified)
#27 CCc1ccccc1NC(=O)CSc1ccsc1[N+](=O)[O-]
#28 Cc1onc(-c2ccccc2)c1C(=O)N1CC(C)OC(C)C1 (stereo unspecified)
#29 CCCOc1ccc(N2C(=O)CC(N(CCc3ccc(OC)c(OC)c3)C(=S)Nc3ccccc3)C2=O)cc1 (stereo unspecified)
#30 CN(C)C(CNC(=O)c1sc2ccccc2c1Cl)c1ccco1 (stereo unspecified)
#31 O=C(CN1C(=O)NC2(CCc3ccccc32)C1=O)NCc1cccc(C(F)(F)F)c1 (stereo unspecified)
#32 N#CC1(NC(=O)CSc2nnc(-c3ccccc3F)o2)CCCCC1

compound no.	25	26	27	28	29	30	31	32
PABP FP inh	10	8	-9	0	2	nt	nt	nt
MT1-MMP act inh	2	0	-6	2	2	2	-5	3
Rce1 inh	i	i	i	i	i	nt	nt	i
Yeast UUG start	-21	nt	nt	nt	nt	-10	2	nt
eIF4H FP inh	-2	-9	47	-1	5	nt	nt	nt
CSC inhib	-10	-4	4	-4	68	nt	13	nt
MT1-MMP act inh RFP	5	1	-9	7	-7	0	0	1
Env fusion inh	10	3	4	nt	nt	10	-27	8

Record cards, as listed above.
Record of Cc1onc(-c2ccccc2)c1C(=O)N1CC(C)OC(C)C1 (stereo unspecified) = PABP FP inh: 0; MT1-MMP act inh: 2; Rce1 inh: i; Yeast UUG start: nt; eIF4H FP inh: -1; CSC inhib: -4; MT1-MMP act inh RFP: 7; Env fusion inh: nt
Record of O=C(CN1C(=O)NC2(CCc3ccccc32)C1=O)NCc1cccc(C(F)(F)F)c1 (stereo unspecified) = PABP FP inh: nt; MT1-MMP act inh: -5; Rce1 inh: nt; Yeast UUG start: 2; eIF4H FP inh: nt; CSC inhib: 13; MT1-MMP act inh RFP: 0; Env fusion inh: -27
Record of CCc1ccccc1NC(=O)CSc1ccsc1[N+](=O)[O-] = PABP FP inh: -9; MT1-MMP act inh: -6; Rce1 inh: i; Yeast UUG start: nt; eIF4H FP inh: 47; CSC inhib: 4; MT1-MMP act inh RFP: -9; Env fusion inh: 4

3 entries already listed, arranged by the value under Env fusion inh, low to high.
No. | SMILES | MT1-MMP act inh | Rce1 inh | Yeast UUG start | MT1-MMP act inh RFP | Env fusion inh
14 | Cc1ccc(C2=Nc3cccnc3C(c3ccccc3)=NN2)cc1 | 1 | i | nt | 1 | -101
3 | CCN(c1ccc(C(=O)CSc2nnc(C3CC3)n2C2CC2)cc1)S(C)(=O)=O | -2 | nt | -18 | 1 | -6
25 | CC1(C)CC(=O)C(C=Nc2ccc3cn[nH]c3c2)=C(O)C1 | 2 | i | -21 | 5 | 10

(further entries)
#33 COc1ccc(NC(=O)CS(=O)CC(=O)Nc2cccc3cccnc23)cc1 (stereo unspecified)
#34 C[C@@H]1CN([C@@H](C)CO)C(=O)CCCn2nncc2CO[C@@H]1CN(C)C(=O)OCc1ccccc1
#35 CC(=O)Nc1cccc(-c2cc(-c3c(Cl)cccc3Cl)no2)c1
#36 CC[N+](C)(CC)CCOC(=O)C1c2ccccc2Oc2ccccc21

compound no.	33	34	35	36
PABP FP inh	-7	nt	-5	nt
MT1-MMP act inh	-3	-2	-2	2
Rce1 inh	i	nt	i	nt
Yeast UUG start	-11	4&-8	nt	-10
eIF4H FP inh	-11	nt	-12	nt
CSC inhib	nt	nt	24	4
MT1-MMP act inh RFP	-1	1	-7	6
Env fusion inh	-2	?	3	0
